NPYLR7 agonist – mosquito NPYLR7 agonism; activation, % at 10 µM; 270,000 tested, 0.15% active; HEK293T NPYLR7/Galpha15, GCaMP6s calcium fluorescence; AID 1259423; in the data active = activation above about 40%;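 note: 0% = vehicle and 100% = reference agonist at the receptor; some compounds past the cut are filed as inactive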
NPYLR7 agonist max-min – also measured in NPYLR7 agonist; calls as there; activation, %; measured here: Max-Min RFU normalised activation; some inactives read as strong as hits;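 span of the calcium signal over five minutes; 0% = vehicle and 100% = native peptide agonist; compound fluorescence can raise it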
* hit, by the source's call; i = inactive; & = joins results of further samples. These rows are one share of the data; count on the stated rates, not on these rows.

smiles,NPYLR7 agonist max-min,NPYLR7 agonist
COCCN(CC(=O)N(Cc1cccn1Cc1cccc(OC)c1)C(C)(C)C)C(=O)c1ccc(OC)cc1,4,8
Cc1ccc(C)n1-c1ccsc1C(=O)NC1CCCC1,-5,-2
CC(C)C(=O)Oc1ccc(CO)cc1[C@H](CCN(C(C)C)C(C)C)c1ccccc1,-13,-9
COCC(=O)N(Cc1cccc(F)c1)Cc1cc(NC(=O)CC(C)C)ccc1N(C)C,14,22
Cc1ccc(C(=O)c2c(N)c(C(=O)Nc3ccccc3C)c3ccccn23)cc1C,-9,-5
O=C1NCC2(CCCN(C(=O)c3csc(Cc4ccccc4)n3)C2)O1 (stereo not drawn),4,4
CO[C@H]1/C=C/O[C@@]2(C)Oc3c(C)c(O)c4c(O)c(c(C=NN5CCN(C)CC5)c(O)c4c3C2=O)NC(=O)/C(C)=C\C=C\[C@H](C)[C@H](O)[C@@H](C)[C@@H](O)[C@@H](C)[C@H](OC(C)=O)[C@@H]1C,-4,1
Cc1ccc(C2=NN(C(=O)CN3CCc4ccccc4C3)C(c3ccc4c(c3)OCO4)C2)cc1 (stereo not drawn),5,-3
Cc1ccc(-n2nc(C(=O)O)c(=O)n(Cc3cccc(C(F)(F)F)c3)c2=O)cc1C,25,17
O=C1OC(c2ccccc2)=N/C1=C\c1ccc(OC(F)F)cc1,-9,-3
Cc1cc(N2CCC(CC(N)=O)CC2)nc(C(C)(C)C)n1,0&-6,3&-6
Cc1cccc(SC2CCN(C(=O)c3cn[nH]n3)CC2)c1,2,4
COc1ccc(CC(=O)Nc2ncc(Cc3cc(F)cc(F)c3)s2)c(OC)c1OC,-5,0
CN(C(=O)c1cc(-c2ccncc2)n[nH]1)C1Cc2ccccc2C1,16,26
CC(=O)Nc1ccc(NC(=O)c2cc(C(C)C)n(-c3nc4ccccc4s3)n2)cc1,0,13
CN1C(=O)c2ccccc2C(C(=O)NCc2ccccn2)C1c1cn(C)c2ccccc12 (stereo not drawn),-7,-5
Fc1ccc(C2Nc3ccccc3Nc3c2c(-c2ccccc2)nn3-c2ccccc2)cc1 (stereo not drawn),17,9
COc1cc2c(cc1OC)CN(C1CCCN(Cc3cccc4nonc34)C1)CC2 (stereo not drawn),13&-1,20&1
CCc1ccc(-n2c(C(CC)N(CCC(C)C)C(=O)Nc3ccc([N+](=O)[O-])cc3)nc3ccccc3c2=O)cc1 (stereo not drawn),24,26
O=C(NCc1cccnc1)c1ccc(Nc2c(Oc3ccccc3)cnn(Cc3ccccc3)c2=O)cc1,7,11
COC(=O)c1cccc(CSc2nnc(-c3ccc(F)cc3)n2-c2ccccc2C)c1,8,-4
OC(COCc1ccco1)CN(Cc1ccccc1)C1CC1 (stereo not drawn),15,5
CC1CCN(Cc2nnnn2CC(=O)NCc2scnc2-c2ccccc2)CC1,-2&-6,2&-1
Cc1cccc(Cn2cccc2CN(CCC(C)C)Cc2c(F)cccc2F)c1,7,3
CCn1nnc2c(SCC(=O)NC)ncnc21,5,0

Structures from the list above with a tert-butyl group (two):
smiles,NPYLR7 agonist max-min,NPYLR7 agonist
COCCN(CC(=O)N(Cc1cccn1Cc1cccc(OC)c1)C(C)(C)C)C(=O)c1ccc(OC)cc1,4,8
Cc1cc(N2CCC(CC(N)=O)CC2)nc(C(C)(C)C)n1,0&-6,3&-6

The results go on.
smiles,NPYLR7 agonist max-min,NPYLR7 agonist
COc1cccc(CN2CCCC3(CCN(C(=O)c4cc(-c5ccc(C)o5)[nH]n4)C3)C2)c1 (stereo not drawn),3,9
c1nc2c(c(N[C@H]3COC[C@@H]3N3CCCC3)n1)CCNCC2,2,1
COc1cccc(NC(=O)C2(C)CCN2Cc2ccccc2Cl)c1 (stereo not drawn),-3,7
CCOC(=O)N1CCC(C(=O)SCC)=C1C,6,1
CC(C)C(Sc1nnc(C2CC2)n1C1CC1)C(=O)NC(N)=O (stereo not drawn),5,-1
CCOC(=O)C1(CCOc2ccccc2)CCN(Cc2cccc3cnccc23)CC1,1,5
CN(CC(=O)Nc1cccc(C#N)c1)Cc1ccccc1Cl,2,5
Cc1cccc2nc(C(=O)N3CCCC(C(=O)c4ccc(Oc5ccccc5)cc4)C3)cn12 (stereo not drawn),-19,-2
CCOC(=O)CCC(=O)Nc1nn(C)c2c1C(c1ccccc1)CC(=O)N2 (stereo not drawn),-15,-15
CC1=CC(C)(C)NC(=S)N1c1cccc2ccccc12,-2,-1
COC(=O)[C@@H]1C[C@@H](O)CN1CCc1ccncc1,0,4
C=CCN(CC(=O)N1CCc2sccc2C1c1ccc(Cl)cc1Cl)C(=O)c1ccc(F)cc1 (stereo not drawn),16,11
CSc1ncc(Cl)c(C(=O)N2CCc3ccccc32)n1,-6,-3
Cc1ccn2c(NC(C)(C)CC(C)(C)C)c(-c3ccc(OC(=O)c4cccc5ccccc45)cc3)nc2c1,17,13
O=C(Nc1cccc(C(F)(F)F)c1)c1cnn2c(C(F)(F)F)cc(-c3cccs3)nc12,2,0
C[C@H](C(=O)NCC1CCOCC1)N1Cc2ccc(-c3ccnn3C)nc2C1=O,16,13
COc1ccc(C(=O)N(Cc2csc(COc3ccccc3OC)n2)C2CC2)cc1,5,-5
CCN(CC)CCN1CCN(c2ccnc3c(-c4cc(C(C)C)ccc4OC)cnn23)CC1,-8,-4
O=C(CCCn1cnnn1)N1C[C@H]2CC=CC[C@H]2C1,3,6
CN(Cc1ccccc1CN1CCCC1)C(=O)C1CCC(=O)N(CC2CCCCC2)C1 (stereo not drawn),8,14
CCCCCCSc1nc(-c2ccc(OC)cc2)cc(-c2ccc(OC)cc2)c1C#N,-6,0
Clc1ccc(N2CCN(Cc3c[nH]c4ncccc34)CC2)cc1,-27,2
COCC(C)NC(=O)c1sccc1-c1ccccc1 (stereo not drawn),11,12
CC(C)(C)c1ccc(OCC(=O)N2CCNC(=O)CC2)c(C(C)(C)C)c1,3,3
Cc1ccn2c(=O)nc(SCc3cccc4ccccc34)nc2c1,1,3

5 entries from above, with two lines to a compound.
Results follow in this order: NPYLR7 agonist max-min	NPYLR7 agonist
CCOC(=O)CCC(=O)Nc1nn(C)c2c1C(c1ccccc1)CC(=O)N2 (stereo not drawn)
 : -15	-15
COCC(C)NC(=O)c1sccc1-c1ccccc1 (stereo not drawn)
 : 11	12
Cc1cccc2nc(C(=O)N3CCCC(C(=O)c4ccc(Oc5ccccc5)cc4)C3)cn12 (stereo not drawn)
 : -19	-2
O=C(CCCn1cnnn1)N1C[C@H]2CC=CC[C@H]2C1
 : 3	6
CCOC(=O)N1CCC(C(=O)SCC)=C1C
 : 6	1

Remaining list, next part.
smiles,NPYLR7 agonist max-min,NPYLR7 agonist
Cc1cccc(C2=NN(C(=O)CN3CCOCC3)C(c3ccc(F)cc3)C2)c1 (stereo not drawn),-8,-8
Cc1cccc(-c2ccc(C(=O)O)c(N3Cc4cnc(C(C)(C)C)nc4C3)n2)c1,2,2
Nc1nc(CSc2nnnn2C2CCCC2)nc(Nc2ccccc2)n1,6,5
CCNC(=O)N1CCN(c2nc3cc(Cl)ccc3c3nnc(C4CCCCC4)n23)CC1C (stereo not drawn),6,6
CCC(C)C(NC(=O)c1ccccc1NC(=O)c1ccc(OC)cc1)C(=O)NCC(C)C (stereo not drawn),-6,-7
Cc1cccc(CNC(=O)C(C2CCCC2)N2CCN(C(=O)COCc3ccccc3)CC2)c1 (stereo not drawn),3,-3
CN(C)c1ccccc1CN1CCN(C(=O)CC(F)(F)F)CC1,4,6
COc1cccc(-c2noc3c2CN(C(=O)Cc2cccs2)CC3)c1,0,5
Cc1ccc2oc(-c3ccc(NC(=O)c4cc([N+](=O)[O-])ccc4Cl)cc3O)nc2c1,-12,-9
CC(C)c1ccc(Nc2nccc3c2ncn3C)cc1,-10,-3
Cc1nc(/C=C/C(=O)NC2CCN(c3ncccn3)CC2)cs1,-2,0
CCN(CC)CC(=O)Nc1c(Cl)[nH]c2ccccc12,-6,-2
Cc1ccc(CN(Cc2ccccc2)C(=O)CN(CCN2CCOCC2)C(=O)Nc2ccc(Br)cc2)o1,14,14
CCCOc1nn(CCC)cc1C(=O)NC1=NCCS1,-9,2
Cc1ccc2oc(C(=O)N3CCN4C(=O)CN(C)C(=O)C4C3)c(C)c2c1 (stereo not drawn),10,16
CSc1nn(CC(=O)Nc2ccc(C)cc2Cl)c(N)c1-c1nc(-c2ccc3c(c2)OCO3)no1,8,16
O=[N+]([O-])c1nn(-c2ccccc2)n(O)c1=NC1CCN(Cc2ccccc2)CC1,-17,-9
Cc1nonc1CN(C)Cc1cn(C)nc1-c1cccc(Cl)c1,-3,-2
c1ccc(-c2noc(N3CCCC3)c2CNCCN2CCOCC2)cc1,16,17
Cc1ccc(C)c(N2C(=N)S/C(=C\c3ccc(Cl)cc3)C2=O)c1,-14,-8
C=CCNC(=O)N[C@H]1C[C@H]2C(=O)Nc3cc(Cl)ccc3C(=O)N2C1,-15,-9
CN(CC1CCCCO1)C(=O)c1cn(C2CCCCCC2)nn1 (stereo not drawn),-4,1
Nc1c(Cl)cc(NS(=O)(=O)c2cccc(F)c2)cc1Cl,-5,-5
CC(C)CCCC1CN(C(=O)c2cnc(C(C)C)[nH]c2=O)CCO1 (stereo not drawn),-6,-3
CCn1c(C)nnc1SCCn1cnc(-c2ccccc2)c1-c1cnn(C)c1,9,-6
Cc1ccc([N+](=O)[O-])cc1NC1=NS(=O)(=O)c2cc([N+](=O)[O-])ccc21,9,9
CC1C(OC(=O)C2CCCN2C(=O)C(C)(C)C)CC2CC1C2(C)C (stereo not drawn),-1,0
COCc1cc(N2CCN(c3ccccc3Cl)CC2)nc(SCc2ccc(C(=O)N3CCOCC3)cc2)n1,-4,-9
CC(=O)c1ccc(N2CCN(Cn3ncn(-c4ccc(C)c(Cl)c4)c3=S)CC2)cc1,7,8
Clc1cccc(N=C2NN=C(c3cc4ccccc4o3)CS2)c1,-1,2
NC(=O)c1cc2c(nc1-c1cc3ccccc3o1)CCC2,12,26
CSC1=NC2(C)CCCCC2C12C=CC(=O)C=C2 (stereo not drawn),-6,-3
Cc1ccccc1-c1nnnn1Cc1ccc2c(c1)OCCO2,16,-2
Cc1ccc(N2C(=O)c3cccc4cccc(c34)C2=O)c(C)c1,-13,-7
Cc1ccccc1-n1nc(C)c(CNC(=O)C[C@@H]2NC(=O)[C@H](Cc3ccccc3)NC2=O)c1C,-6,-5
Cc1c(O)ccc(/C=N\Nc2ccc3nnc(C)n3n2)c1O,-25,-20
O=C1NC(=O)C(=Cc2cccc([N+](=O)[O-])c2O)C(=O)N1,6,8
Cc1nn(C)c(C)c1CCC(=O)N(Cc1ccc2c(c1)OCO2)C(C)C,-3,-2
COc1ccc(-c2cc(C(=O)N3CCOCC3)nc3c(-c4ccccc4)c(C)nn23)cc1,14,3
CC1(c2ccccc2)NC(=O)N(Cc2csc(-c3ccccc3)n2)C1=O (stereo not drawn),-14,-10
CCC(C)C(O)CNC(=O)Nc1ccc(CS(C)(=O)=O)cc1 (stereo not drawn),3,6
Cc1ccc(-c2csc(C=Cc3ccc4c(c3)OCO4)n2)cc1,0,0
O=C(NCCn1ncc2c(=O)n(Cc3cccc(Cl)c3)cnc21)c1cc2ccccc2o1,-12,-7
COc1cc(C2(CNC(=O)c3cnccn3)CCCC2)ccc1OC(F)F,6,11
COC(=O)CC(=O)N1CCN(CC(OCc2cccc(OC)c2)c2ccc(Cl)cc2)CC1 (stereo not drawn),1,-3
O=C1c2ccccc2-c2onc3c(N4CCOCC4)cc(Nc4ccccc4)c1c23,-22,-14
Cc1cc(C)cc(NC(=O)c2cccn(OCc3ccccc3)c2=O)c1,14,16
CN(C)C(=O)C1CCN(Cc2ccnc(-c3ccc(Br)cc3)n2)CC1,i,5
CCS(=O)(=O)Oc1cccc(CN(Cc2ccco2)C(=O)c2c(OC)cccc2OC)c1,10,5
CCCn1nc(C(=O)N2CCCC2)c2c1CCC(NCc1cnc3ccccc3c1)C2 (stereo not drawn),5,20

(continued)
smiles,NPYLR7 agonist max-min,NPYLR7 agonist
CC(SCCC(=O)N(CC#N)CC#N)c1ccccc1F (stereo not drawn),-4,-3
CCC(C)Cc1c(C)sc2nc(CSc3nnnn3C3CCCC3)[nH]c(=O)c12 (stereo not drawn),5,6
CC(=O)NCCC1CCCCN1Cc1cc2cc(C)cc(C)c2[nH]c1=O (stereo not drawn),-2,8
Cc1cc(C)c2oc(=O)n(C3CCN(C(=O)c4cccc(Cl)c4Cl)CC3)c2c1,7,21
CCC(CCl)NC(=O)c1cccc(C(=O)NC(CC)CCl)n1 (stereo not drawn),-8,-4
Cc1nnc(SCC(=O)NCC(C)N(C)c2ccccc2)s1 (stereo not drawn),1,12
O=C(OCc1nnsc1Cl)c1cccc(N2CCCS2(=O)=O)c1,-2,-1
C=CCC1(CC=C)CCCN1C(=O)CC1C(=O)NCCN1Cc1ccc(OC)c(OC)c1 (stereo not drawn),-2,-1
CCC(C)NC(=O)c1nn(-c2ccc(C)cc2)c(=O)n(Cc2ccccc2F)c1=O (stereo not drawn),4,5
Cc1ccc(C(c2ccccc2)N2CCN(C(=O)c3ccccc3C(F)(F)F)CC2)cc1 (stereo not drawn),6,-4
Cc1ccc(CN2CCN(Cc3cccc(-n4cccn4)c3)CC2CCO)o1 (stereo not drawn),2,6
CCC1CCCCN1C(=O)c1ccc(F)c(NS(C)(=O)=O)c1 (stereo not drawn),4,5
N#CC1(NC(=O)Cc2c[nH]c3cc(F)ccc23)CCCCC1,4,8
OCCCN1CCC(c2cccc(F)c2)C1 (stereo not drawn),11,22
